# CSC inhib – cancer stem cell inhibition. cancer stem cell-like cells viability, luminescence. inhibition, % at 7.5 µM. 300,000 compounds, 1.1% hits;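 active = mean at 75% or more and at least half the replicates too; tested in HMLE shEcad cells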;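 note: 0% = median of negative and 100% = median of positive control wells; the first replicate is given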
# Rce1 inh – inhibitors of yeast Ras-converting enzyme; Q03530; yeast membranes, quenched prenylated peptide cleavage fluorescence; calls only; 290,000 compounds, 0.27% hits;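 active = fall in fluorescence gain of 50% or more versus controls, with final raw signal at or below 3038400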;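 note: plate controls were neutral control wells for no effect and wells lacking membranes for full effect; tested at 10 µM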
# Target sequence (Q03530 whole entry, looked up): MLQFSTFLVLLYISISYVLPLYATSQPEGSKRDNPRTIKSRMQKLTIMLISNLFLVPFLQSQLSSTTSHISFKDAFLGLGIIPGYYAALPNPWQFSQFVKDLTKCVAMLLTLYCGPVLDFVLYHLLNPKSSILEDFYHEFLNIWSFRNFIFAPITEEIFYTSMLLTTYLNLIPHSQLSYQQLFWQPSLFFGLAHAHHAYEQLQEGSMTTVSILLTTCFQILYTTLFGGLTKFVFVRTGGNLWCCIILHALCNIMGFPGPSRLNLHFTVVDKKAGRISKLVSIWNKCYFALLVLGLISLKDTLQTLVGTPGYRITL
# Yeast UUG start – modulators of start codon recognition fidelity in yeast | activity score, % at 18.7 µM | S. cerevisiae UUG-firefly luciferase reporter, luminescence/redox ratio | 350,000 compounds, 0.13% hits;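 active = replicate mean at a twofold rise or more, about +100% in these data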;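 note: firefly luciferase made from a UUG start codon reports start codon fidelity; reporter light over untreated wells divided by growth signal over untreated wells; some hits fall short of that in this replicate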
# eIF4H FP inh – inhibitors of RNA binding by human eIF4H; Q15056; eIF4H fluorescence polarization binding assay; inhibition, % at 35 µM; 290,000 compounds, 0.94% hits;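 active = 50% or more with normal probe brightness, or confirmed in later tests; about a fifth of its hits are not listed in these tables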;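 note: calls also rest on retests at 20 µM and on dose response follow-up; 0% = protein and probe with vehicle and 100% = probe without protein; strong numbers were not always called active; many hits fall short of the cut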
# Env fusion inh – blocks HIV Env-driven cell-cell fusion; HeLa-JRFL Env/CEM21 cell fusion, luciferase; inhibition, % at 12.3 µM; 360,000 compounds, 1.1% hits;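 active = mean replicate inhibition score of at least 50 and every replicate individually at or above 50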;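 note: 0% = plate neutral controls and 100% = maraviroc near 300 nM; one replicate is shown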
# PABP polyA inh – blocks human PABP binding to poly(A) RNA. P11940. fluorescence polarization. inhibition, % at 35 µM. 290,000 compounds, 1% hits. AID 2014;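 active = 50% or more with normal probe brightness, or confirmed in later tests; about a fifth of its hits are not listed in these tables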;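 note: calls also rest on retests at 20 µM and on dose response follow-up; controls were probe without protein and protein plus probe with vehicle; some compounds called inactive have numbers as strong as hits; many hits fall short of the cut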
# Target sequence (P11940 whole entry, looked up): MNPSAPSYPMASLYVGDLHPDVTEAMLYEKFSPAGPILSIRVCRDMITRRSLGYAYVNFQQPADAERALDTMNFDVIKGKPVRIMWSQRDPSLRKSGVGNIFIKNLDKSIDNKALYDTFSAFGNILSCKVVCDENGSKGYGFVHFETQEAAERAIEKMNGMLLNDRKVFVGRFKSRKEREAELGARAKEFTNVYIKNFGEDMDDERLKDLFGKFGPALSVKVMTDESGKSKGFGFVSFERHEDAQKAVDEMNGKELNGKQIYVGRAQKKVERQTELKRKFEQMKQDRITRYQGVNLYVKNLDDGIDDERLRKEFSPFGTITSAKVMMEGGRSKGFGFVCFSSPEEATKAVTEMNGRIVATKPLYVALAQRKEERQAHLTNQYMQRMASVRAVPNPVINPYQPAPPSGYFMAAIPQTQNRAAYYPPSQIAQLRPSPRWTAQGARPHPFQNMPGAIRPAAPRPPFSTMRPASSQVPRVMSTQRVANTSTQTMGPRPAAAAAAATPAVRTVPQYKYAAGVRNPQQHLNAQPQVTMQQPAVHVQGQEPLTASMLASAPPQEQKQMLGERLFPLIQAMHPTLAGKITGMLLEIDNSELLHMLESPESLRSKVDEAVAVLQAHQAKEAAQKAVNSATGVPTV
# MT1-MMP act inh – blocks activation of human MT1-MMP; HT1080 RFP-PRO-GFP cells, GFP/RFP ratio fluorescence, overnight; percent of plate control window, DMSO zero; GFP/RFP ratio change, % at 20 µM; 360,000 compounds, 0.061% hits; P50281; AID 651647;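 active = GFP/RFP ratio change of at least 30% with cell ATP level not reduced by more than half and red fluorescence within 50% of control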; note: strong numbers were not always called active
#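 Assay system: HT1080 cells carrying an RFP-PRO-GFP reporter | Dosing: Single dose of 20 µM compound, 1% DMSO final | Incubation: Cells overnight before dosing, compound overnight, 37 °C, 5% CO2 | Evaluation: GFP/RFP fluorescence ratio | Control set: DMSO and RFP-L50D-GFP cell wells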
# MT1-MMP act inh RFP – recorded beside MT1-MMP act inh, whose call it bears; RFP signal change, %; measured here: RFP expression control read;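 0 = vehicle wells; hits needed this value within 50% of zero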
# * hit, by the source's call; i = inactive; / = not tested or not shown; & = joins results of further samples.
SMILES,CSC inhib,Rce1 inh,Yeast UUG start,eIF4H FP inh,Env fusion inh,PABP polyA inh,MT1-MMP act inh,MT1-MMP act inh RFP
COc1ccc(C(=O)O)cc1S(=O)(=O)Nc1cccc(C)c1,-1.9,i,/,11.7,-5.6,12.7,-1.4,-0.4
CC(C)(C)OC(=O)C[C@@H]1C/C=C\C[C@@H](CC(=O)N(CCO)Cc2ccccc2)C(=O)NCCOC1=O,-18.6,/,-5.6,/,6.2,/,3.6,0.3
O=C(CCNC(=O)Cn1cnc2ccccc2c1=O)NCC1COc2ccccc2O1 (stereo not given),-3.1,i,-19.2,-8.4,/,-12.1,-5.9,0.4
CCOc1ccccc1CNS(=O)(=O)c1ccc2c(c1)C(C)(C)C(=O)N2C,-20.7,i,7.1,2.0,5.0,-6.5,0.4,1.8
COCCC1CCCCN1C(=O)c1cc(COc2ccc(-n3cncn3)cc2)on1 (stereo not given),-13.1,i,-4.5,4.3,/,8.7,11.8,-26.0
Cc1cccc(NC(=O)c2c([N+](=O)[O-])c(C(C)(C)C)nn2C)c1,-9.8,i,/,-0.6,/,-1.0,-1.6,0.0
CN(C)CC(C)(C)CNC(=S)Nc1ccc(S(=O)(=O)N2CCOCC2)cc1,-0.8,i,/,14.4,-7.9,6.0,-2.2,1.0
O=C(Cn1cnc2c(nnn2-c2cccc(Cl)c2)c1=O)NCc1ccccc1,2.0,i,2.9,-16.7,-5.9,-23.5,-0.2,-3.0
O=C(NC(=S)Nc1cccc(Cl)c1N1CCCCC1)c1ccc2c(c1)OCCO2,82.1*,i,-3.1,-1.6,-37.4,6.8,-11.7,-16.8
COc1ccc(C(=O)NNC(=O)C(=O)NCc2ccccc2)cc1,-8.4,i,/,-10.5,8.3,0.0,-2.6,0.3
O=C(CSc1ccccc1C(=O)NCCCN1CCCC1=O)NCc1ccco1,-14.0,i,-1.0,1.6,/,11.8,0.1,7.3
COc1ccc(C(CNC(=O)c2ccc(Cl)s2)N2CCOCC2)cc1 (stereo not given),-11.3,i,4.7,/,-5.8,/,-2.9,1.9
CCCCCC(=O)NC(NC(=S)N1CCOCC1)C(Cl)(Cl)Cl (stereo not given),9.5,/,/,-2.7,/,4.5,0.8,0.6
O=C(CCc1ccccc1)N1CCN(c2ccc(Cl)cc2)CC1,4.2,i,0.4,1.3,-25.0,7.3,-7.3,-3.1
O=C(COC(=O)c1ccccc1NS(=O)(=O)c1cccs1)NC1CCCCC1,-16.2,i,/,-15.8,-10.1,1.4,1.0,2.3
O=C(CCNS(=O)(=O)c1ccc(Br)cc1)NCc1ccc2c(c1)OCO2,-11.0,i,13.5,-3.8,-19.3,2.2,5.1,2.3
CCN(CC)C(=S)SCC(=O)Nc1ncc2c(n1)CCCC2=O,-5.7,i,-9.2,-10.2,4.2,4.1,1.6,0.8
O=C(NCCc1ccco1)c1cc(COc2cccc(C(F)(F)F)c2)on1,11.0,/,-9.3,-9.9,3.5,-14.1,-2.1,-2.3
CCOC(=O)CSc1nc2c(sc(=S)n2-c2ccccc2)c(=O)[nH]1,-2.3,i,/,5.2,11.8,-8.8,3.3,5.8
Cc1ccc(C)c(-n2c(SCC(=O)Nc3nnc(C)s3)nnc2-c2ccoc2C)c1,-12.7,i,-19.5,2.5,-98.8,-3.5,-1.8,-1.8

# Full records as entered above. Order of screens: CSC inhib | Rce1 inh | Yeast UUG start | eIF4H FP inh | Env fusion inh | PABP polyA inh | MT1-MMP act inh | MT1-MMP act inh RFP
# Record of CCN(CC)C(=S)SCC(=O)Nc1ncc2c(n1)CCCC2=O = -5.7 | i | -9.2 | -10.2 | 4.2 | 4.1 | 1.6 | 0.8
# Record of COc1ccc(C(CNC(=O)c2ccc(Cl)s2)N2CCOCC2)cc1 (stereo not given) = -11.3 | i | 4.7 | / | -5.8 | / | -2.9 | 1.9
# Record of O=C(COC(=O)c1ccccc1NS(=O)(=O)c1cccs1)NC1CCCCC1 = -16.2 | i | / | -15.8 | -10.1 | 1.4 | 1.0 | 2.3
# Record of CCOC(=O)CSc1nc2c(sc(=S)n2-c2ccccc2)c(=O)[nH]1 = -2.3 | i | / | 5.2 | 11.8 | -8.8 | 3.3 | 5.8
# Record of O=C(CCNS(=O)(=O)c1ccc(Br)cc1)NCc1ccc2c(c1)OCO2 = -11.0 | i | 13.5 | -3.8 | -19.3 | 2.2 | 5.1 | 2.3

# Other entries follow:
SMILES,CSC inhib,Rce1 inh,Yeast UUG start,eIF4H FP inh,Env fusion inh,PABP polyA inh,MT1-MMP act inh,MT1-MMP act inh RFP
Cc1ccc(NC(=O)c2ccc(S(=O)(=O)NCc3ccco3)cc2)cc1,15.5,i,9.1,-12.1,-12.7,11.5,-0.5,-5.5
CCc1nc2ccccc2n1CC(=O)N1CCN(S(=O)(=O)c2cccc(C(F)(F)F)c2)CC1,-7.2,i,/,2.5,-55.3,-3.1,-0.8,2.1
O=C(O)c1ccc(Nc2ccc([N+](=O)[O-])c3nonc23)cc1,/,i,7.4,-13.7,0.2,-15.4,-1.1,5.9
COCCN(C(=O)CNC(=O)c1ccco1)C(C(=O)NC1CCCC1)c1ccc(OC)cc1 (stereo not given),-1.8,i,-7.4,-7.2,-1.8,4.9,1.8,2.1
CC(=O)Nc1ccc(SCC(=O)N(CCC#N)c2ccc(C)cc2)cc1,-7.1,i,-11.1,-6.6,9.2,1.6,3.0,3.7
CCN1CCN(S(=O)(=O)c2ccc(Cl)c(C(=O)N(C)CCOc3ccc(Cl)cc3)c2)CC1,19.8,i,/,/,25.4,/,-6.7,-15.4
Cc1cccnc1NC(=O)c1nn(C)c2c1CS(=O)(=O)c1ccccc1-2,-11.2,i,-13.9,7.1,4.5,-18.0,3.4,5.3
CC(C)CNC(=O)c1nn(Cc2ccccc2)c(=O)c2ccccc12,-9.3,i,-10.5,-10.4,10.1,0.1,-5.0,-0.9
O=C(/C=C/c1cccnc1)c1ccc([N+](=O)[O-])cc1,6.8,i,-13.4,1.9,5.0,4.8,-2.1,-4.2
CSC1=NC2(CCCCC2)C2=C(CCCC2)N1,-9.9,i,2.5,-2.9,/,9.8,8.5,1.2
Cc1cc(Nc2cccc(Cl)c2)nc(NCc2ccccc2)n1,108.2*,i,/,2.5,58.0,0.7,-0.8,-16.7
O=C(COc1ccc(Br)cc1Cl)NC(=O)Nc1ccc2c(c1)OCCO2,-0.9,i,-12.3,-0.7,-10.3,-4.8,1.0,7.0
COc1ccc(C)cc1NC(=O)CSc1nc2ccccc2nc1N1CCCCC1,28.5,i,-12.7,-13.4,/,-5.1,-5.4,-3.9
Cc1cc(C)n2nc(C(=O)OCC(=O)N(CCC#N)c3ccc(F)cc3)nc2n1,-8.8,i,/,/,/,/,-7.9,0.4
CC(=O)C1=C(C)N(Cc2ccccc2)C(=O)N[C@H]1c1cccc(C(F)(F)F)c1,-12.3,i,-44.6,3.8,6.9,-3.0,-0.5,-14.3
Oc1ccc(N2CCN(c3ncnc4sc5c(c34)CCC5)CC2)cc1,-14.7,i,-19.0,-6.6,/,0.2,-6.4,-10.0
C=CCN1C(=O)C2(OCCCO2)c2cc(Cl)ccc21,-22.6,i,-13.4,-2.9,10.1,10.4,3.6,4.9
CCOC(=O)c1ccccc1CN1C(=O)c2ccccc2S1(=O)=O,-9.1,i,-3.1,-9.9,0.3,5.6,-6.9,-3.0
Cc1ccc(S(=O)(=O)NC2=NCN(CCOC(=O)c3ccc([N+](=O)[O-])cc3)CN2)cc1,0.2,i,-3.6,2.1,-11.4,8.3,4.3,8.1
O=C(Nc1ccccc1O)c1ccc(NC(=O)C2CC2)cc1,15.3,i,-34.5,0.6,-44.2,1.7,4.1,9.3
O=C(N/N=C/c1cccc(OC(=O)c2cccc(Br)c2)c1)c1cccnc1,-8.5,i,-9.9,-7.9,-3.5,-5.4,2.9,3.6
CCOC(=O)C1CCCN(C2CC(=O)N(c3ccc(C(C)C)cc3)C2=O)C1 (stereo not given),-7.6,i,-7.4,1.9,19.8,6.1,-0.3,5.9
Cc1ccc(OCC(=O)Nc2ccc(S(=O)(=O)Nc3ccccn3)cc2)cc1C,-4.4,i,/,-0.4,1.7,-10.0,2.2,1.1
O=C(Cc1cc(=O)[nH][nH]1)N/N=C/c1c(Cl)cccc1Cl,4.2&12.0,i,/,6.7&13.7,-7.8&-3.4,-6.2&0.7,3.2&4.9,-3.6&-0.8
Fc1cccc(C2CCCCN2Cc2nc(C3CC3)no2)c1 (stereo not given),9.6,i,/,-1.1,12.5,-1.4,-2.3,-2.1
CC1CC(C)CN(C(=O)CSc2nnc(-c3ccco3)o2)C1 (stereo not given),6.7,i,-14.0,-5.2,-1.9,-1.4,0.2,4.1
COc1ccccc1NS(=O)(=O)c1cc(NC(=O)c2cc(=O)[nH]c3ccccc23)ccc1N1CCOCC1,-3.1,i,-13.6,1.1,8.7,14.0,-7.3,-8.0
Cc1ccc2c(c1)C(=O)c1ccccc1CS2=O (stereo not given),3.1,i,-7.3,8.3,/,2.6,0.8,0.9
Clc1ccc2oc(SCc3cccnc3)nc2c1,-12.0,i,-16.3,-2.4,1.4,7.7,-3.6,-5.0
CC(=O)c1c(C)[nH]c(C(=O)OCC(=O)N(C)C)c1C,/,i,-9.4,5.2,/,1.3,2.5,4.0
CO/N=C(/C(=O)N[C@@H]1C(=O)N2C(C(=O)O)=CCS[C@H]12)c1cnc(N)s1,-13.4,i,-25.1,35.7,/,26.1,0.3,0.2
Cc1ccccc1CSc1nnc(-c2ccccn2)n1N,-4.7,i,-4.9,-1.6,-56.4,-13.3,-4.9,-3.1
CCN1C[C@@H]2[C@@H]3C(=O)N(Cc4ccccc4)C(=O)[C@@H]3[C@](C)(C1=O)N2C(=O)c1ccc(Cl)cc1,/,/,5.5,/,-17.3,/,0.0,3.9
O=C(CN1C(=O)CSc2ccc(S(=O)(=O)N3CCCCC3)cc21)NCc1cccnc1,5.1,i,/,-7.6,11.9,-9.3,0.4,3.5
CC(=O)N1C[C@@H](CO)[C@@H](N(C)C(=O)c2ccco2)C[C@H]1c1ccccc1,/,/,-5.9,/,26.2,/,2.4,4.4
CCC(C)[C@H](NC(=O)NCc1cccc(OC)c1)C(=O)O (stereo not given in full),-11.8,i,5.8,2.9,-4.1,10.9,0.3,7.1
Cc1noc(C)c1NC(=O)Nc1cccc2c1O[C@@H](CN(C)C)[C@@H](C)CN([C@H](C)CO)C2=O,-19.6,/,-4.4&-2.1,/,-5.8,/,-1.9,3.9
CCOC(=O)Cc1ccc(Nc2nc(NCc3cccs3)nc3ccsc23)cc1,/,/,-6.8,/,32.1,/,3.9,-15.8
CCOC(=O)c1cnc(SCC(=O)Nc2nnc(CC)s2)nc1N,-6.5,i,-22.5,2.5,/,-6.6,2.6,1.0
CCOc1nc(Nc2ccccc2)nc(OCC)n1,-12.4,i,-27.7,-4.3,-6.1,-1.8,1.0,-3.6
C=C(C)COc1ccc(-c2n[nH]c(C)c2-c2ccccc2)c(O)c1,-11.5,i,-13.2,-7.4,/,-4.5,0.1,-20.2
CN(C)c1ccc(P(=O)(OCc2ccccc2)C(O)c2ccccc2)cc1 (stereo not given),-0.9,i,/,-6.9,16.6,4.2,1.9,1.0
CC(C)C(=O)Nc1c(-c2ccccc2)c(=O)c2ccccc2n1C,1.1,i,/,-7.4,1.5,4.6,-2.1,0.7
COc1cc(C=O)ccc1OCc1c(C)noc1C,-21.4,i,-13.9,-12.9,-2.5,-4.5,-3.1,0.2
O=C(C[n+]1ccc(-c2nnc3n2CCC3)cc1)c1ccc(Cl)c(Cl)c1,-21.5,i,-12.5,12.3,48.1,8.4,5.4,9.0
O=C(Nc1ccncc1)Nc1cc(Cl)ccc1Cl,9.0,i,-14.0,-4.8,9.6,-10.9,-2.5,-2.6
CC(=O)c1c(NC(=O)c2ccccc2)[nH]c(-c2ccccc2)nc1=S,13.4,i,/,0.2,3.4,-4.8,-9.3,3.8
NC(=O)COC(=O)/C=C/c1ccc2ccccc2n1,/,i,/,-5.6,14.5,1.0,-11.0,-1.7
